Rango-impB inh: qHTS Assay for Inhibitors of Rango (Ran-regulated importin-beta cargo) - Importin beta complex formation. AID 540263, 2011. Potency, µM (highest dose often 92.2 µM), without a hit: top-dose inhibition of complex formation. Importin subunit beta-1 (Homo sapiens), Q14974. actives 0.031% (n = 340,000). Rango CFP/YFP FRET sensor + importin beta, 45 min; active = rising FRET ratio curve, often small or poorly fitted; inconclusive = mostly compound fluorescence or quenching in the first reads; inactive = flat curves in all reads;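 note: potency is the fitted concentration of half-maximal effect; 0% = DMSO wells and 100% = buffer wells lacking importin beta; nearly all actives have a fitted effect of over 15% in size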
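FRET biosensor (snurportin 1 IBB flanked by EYFP and cerulean), 50 nM, with compound 5 min, then 0.125 microM importin beta in PBS, 1 mM DTT, 0.02% Tween-20, 0.1% BSA. CFP/YFP ratio read after 45 min at room temperature; pre-read flags interference.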
GLA inh pH 4.5: qHTS Assay for Inhibitors of Human alpha-Galactosidase at pH 4.5 | Alpha-galactosidase A (Homo sapiens), P06280 | purified enzyme, 4-MU-alpha-Gal fluorescence, pH 4.5 | activity change, negative = inhibition, % at 105 µM | 230,000 tested, under 10 active; inconclusive = small, poorly fitted or top-dose-only inhibition, or a rising curve; inactive = flat fitted curve, though single readings scatter; no compound was filed as active;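 note: 0% = full activity with enzyme and -100% = basal without enzyme; dose as in the result columns while the protocol names 77 µM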
Target sequence (P06280 whole entry, looked up): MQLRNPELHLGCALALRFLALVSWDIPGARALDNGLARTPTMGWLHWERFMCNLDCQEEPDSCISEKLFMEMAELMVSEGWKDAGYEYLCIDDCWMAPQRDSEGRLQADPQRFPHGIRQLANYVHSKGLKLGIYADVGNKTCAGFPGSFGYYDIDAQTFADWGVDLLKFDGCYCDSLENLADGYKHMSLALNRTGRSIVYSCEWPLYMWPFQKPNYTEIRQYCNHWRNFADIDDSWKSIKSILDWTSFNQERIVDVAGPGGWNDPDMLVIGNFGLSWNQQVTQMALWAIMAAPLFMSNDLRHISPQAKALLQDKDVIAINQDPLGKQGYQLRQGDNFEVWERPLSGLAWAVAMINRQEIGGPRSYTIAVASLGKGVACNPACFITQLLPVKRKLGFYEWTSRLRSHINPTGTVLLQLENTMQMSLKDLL
miR-21 FLuc: qHTS Assay for Modulators of miRNAs and/orActivators of miR-21. HeLa miR-21 FLuc reporter, luciferase, 48 h. Potency, µM (doses to about 38.3 µM), for inactives: top-dose reporter change, positive = more light. 340,000 tested, under 10 active; active = well fitted rising curve with a large enough effect; inconclusive = small, poorly fitted or top-dose-only effect; inactive = no such curve, though single readings can be large or run the other way;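 note: % of control where 0% means no effect; miR-21 action dims this reporter so a rising signal means less miR-21 action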
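HeLa miR-21-FLuc reporter line, endogenous miR-21; 2000 cells/well in DMEM/10% FBS; compound titration up to ~40uM final, 48 h, 37 degree Celsius; luciferase detection reagent, 15 min lysis, CCD luminescence.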
Rango release inh: qHTS Assay for Inhibitors of RanGTP induced Rango (Ran-regulated importin-beta cargo) - Importin beta complex dissociation. actives 0.071% (n = 340,000). Biochemical FRET Rango-importin beta, RanGTP-induced dissociation. Snurportin-1 (Homo sapiens) + GTP-binding nuclear protein Ran (Homo sapiens) + Importin …. Potency, µM (highest dose often 46.1 µM), for the others: at the top dose activity change, negative = inhibition; active means falling FRET ratio curve, often poorly fitted, with flat reads before Ran was added; inconclusive means other falling curves, or compound fluorescence or quenching; inactive means flat or rising ratio curve;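 note: potency is the fitted concentration of half-maximal effect; % of control where 0% means no effect; nearly all actives have a fitted effect of over 45% in size; -100% = wells without RanGTP and RCC1; the record marks most hits as doubtful in a second field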
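Compounds preincubate 5 min with complex of recombinant Rango and importin beta in PBS with 1 mM DTT. Ran (0.6 uM) loaded with 2 mM GTP plus 0.2 uM RCC1 starts dissociation; FRET is recorded 45 min later.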
Numbers without * were called inactive; ? = inconclusive; / = not tested or not shown; [ ] = dose if it differs, or a comment. The list is partial (hit frequency here may not be typical).

SMILES	Rango-impB inh	GLA inh pH 4.5	miR-21 FLuc	Rango release inh
COc1cccc(OC)c1C(=O)Nc1ccc(C(=O)c2ccncc2)cc1	?	/	/	-12.1%
Cc1ccccc1C(=O)NCC(=O)NC1CC1	1.4%	/	/	-10.6%
CCCCn1c(N)c(N(CCC(C)C)C(=O)COC(=O)Cc2ccc(Cl)cc2)c(=O)[nH]c1=O	-1.0%	/	/	-5.3%
COc1cc(C(=O)NNC(=O)C2CSC3(C)CCC(=O)N23)cc(OC)c1OC (centres undefined)	-0.9%	/	/	20.6%
Cc1c(C(=O)N(Cc2ccccc2)Cc2cccs2)cnn1-c1ccc(Cl)cc1	-0.5%	3.1	15.7%	1.9%
O=C1CN(C(=O)CN2CCCC2)C(c2ccccc2)c2cc(Br)ccc2N1 (centres undefined)	-1.8%	3.3	-4.2%	4.4%
Cc1csc(C(C)N(C)C(=O)CCc2nnc(CCc3ccccc3)o2)n1 (centres undefined)	1.3%	-10.5	-9.7%	11.7%
Cc1ccc(N(Cc2cc3ccc(C)cc3[nH]c2=O)C(=O)c2ccco2)cc1	-3.0%	-2.9	-0.8%	10.2%
COc1ccc(N2CCN(S(=O)(=O)c3ccc4c(c3)CC(C)N4C(=O)C3CC3)CC2)cc1 (centres undefined)	7.0%	/	3.5%	10.1%
O=C(c1cccs1)N1CCCC(c2nc3c(nnn3Cc3ccccc3)c(=O)[nH]2)C1 (centres undefined)	-3.4%	-1.9	-0.5%	-12.7%
CCC(=O)NC(=S)Nc1ccc(NC(=S)NC(=O)c2ccc(C)cc2)cc1	?	-1.7	-10.5%	8.5%
COc1ccc(CN2C(=O)c3ccccc3C(/C=N\OCc3ccc(C)cc3)C2=O)cc1 (centres undefined)	?	-6.2	-16.3%	?
O=c1[nH]c2ccccc2c2nc3ccccn3c12	-2.1%	3.7	-27.7%	9.2%
CCOC(=O)CNC(=O)CSc1nc2nc(C)c(Br)cc2[nH]1	1.0%	4.5	-9.3%	17.2%
c1cc2c(cc1-c1[nH]ncc1CN1C[C@H]3CC[C@H]1C3)OCO2	4.0%	0.6	0.9%	19.4%
Cc1cccc(NC(=O)[C@H](C)NC(=O)[C@@H]2Cc3ccccc3CN2C(=O)OC(C)(C)C)c1	-1.0%	/	-0.5%	-5.8%
O=C(NCC(=O)N1CC=C(c2ccccc2)CC1)c1ccco1	-0.6%	/	/	-25.7%
CC(C)NC(=O)CSc1nc2ccccc2n1CC(=O)N(C(C)C)C(C)C	0.2%	-3.5	-0.9%	12.0%
Cn1cccc1CNC(=S)Nc1ccccc1F	-4.8%	5.7[21.1 µM]	-1.0%	-1.2%
COc1cc(/C=N/n2cnnc2)ccc1OC(=O)c1cccnc1	-0.3%	-22.0	-0.4%	1.9%
COc1ccc(NC(=O)N2CCN(c3ccc([N+](=O)[O-])cc3)CC2)cc1	?	0.5	-1.6%	11.8%
Cc1cc(OCC(=O)NCCO)ccc1Cl	-0.7%	-0.9	-18.0%	3.8%
Cc1ccc2c(c1)C(c1ccc(N3CCOCC3)cc1)=NNC(c1cccs1)=N2	6.3%	0.6	-7.9%	-5.8%
CCOC(CNC(=O)c1ccc2c(c1)ncn2-c1ccc(F)c(F)c1)OCC	4.0%	-7.9[21.1 µM]	-14.8%	-1.0%
O=C1N=c2ccccc2=C1c1sc(=S)n(NC(=O)c2cccc(O)c2)c1O	0.4%	-0.3	-1.9%	0.9%
O=C(CN1CCOC1=O)N1CCCC(N2CCN(c3cccc(C(F)(F)F)c3)CC2)C1 (centres undefined)	2.0%	/	-7.9%	3.2%
O=C(c1ccccn1)N1N=C2/C(=C/c3ccccc3)CCCC2C1c1ccccc1 (centres undefined)	-0.4%	-1.0	-1.9%	0.3%
CC(=O)c1c(C)[nH]c(C(=O)NCc2ccccn2)c1C	-0.2%	8.2	-22.8%	-20.1%
CC1CC(C)CN(C(=S)Nc2ccc(SC(F)F)cc2)C1 (centres undefined)	1.4%	-4.8	0.0%	-10.9%
Cc1cccc(S(=O)(=O)Nc2nc3ccccc3nc2NCc2ccc3c(c2)OCO3)c1	-0.4%	-8.6	-6.3%	12.5%

A draw from above in order of formula weight, highest first:
SMILES	Rango-impB inh	GLA inh pH 4.5	miR-21 FLuc	Rango release inh
Cc1cccc(S(=O)(=O)Nc2nc3ccccc3nc2NCc2ccc3c(c2)OCO3)c1	-0.4%	-8.6	-6.3%	12.5%
CCOC(CNC(=O)c1ccc2c(c1)ncn2-c1ccc(F)c(F)c1)OCC	4.0%	-7.9[21.1 µM]	-14.8%	-1.0%
CC(=O)c1c(C)[nH]c(C(=O)NCc2ccccn2)c1C	-0.2%	8.2	-22.8%	-20.1%

(list continues)
SMILES	Rango-impB inh	GLA inh pH 4.5	miR-21 FLuc	Rango release inh
COc1ccc2cc(CN(CCCN3CCOCC3)Cc3nnnn3C3CCCC3)c(=O)[nH]c2c1	4.0%	1.6	0.2%	?
CCN(C(=O)COC(=O)c1cccnc1)c1cccc2ccccc12	1.6%	/	/	-1.5%
CCN(CC)C(=O)C1CCN(S(=O)(=O)c2ccc(C3CNC(=O)C3)cc2)CC1 (centres undefined)	-0.5%	4.8	0.4%	0.5%
CSCCC(NC(=O)c1ccccc1)C(=O)N1CCN(C(=O)c2ccccc2)CC1 (centres undefined)	6.6%	/	/	29.9%
Cc1ccc(CNC(=O)c2coc(=O)c3ccccc23)o1	?	-10.0	6.2%	11.9%
O=C(c1ccc(F)cc1)N1CCCC(N2CCN(Cc3ccc4c(c3)OCO4)CC2)C1 (centres undefined)	-2.3%	/	-1.6%	21.7%
Cc1c(N=C2N=C(NC(=O)c3ccc(F)cc3)c3ccccc32)c(=O)n(-c2ccccc2)n1C	0.1%	-0.8	-16.7%	0.4%
Cc1[nH]c2ccccc2c1CN1CCN(c2ccccn2)CC1	-1.7%	-4.1	-0.2%	-10.5%
CCN(C(=O)COC(=O)c1ccc(=O)n(Cc2ccccc2)n1)C1CCCCC1	-1.1%	/	/	-14.6%
COc1cccc(C(=O)N(C)Cc2c(C)nn(C3CCS(=O)(=O)C3)c2C)c1 (centres undefined)	-2.6%	/	/	-3.8%
CCC1Nc2ncnc(N3CCOCC3)c2N(Cc2ccc(Cl)cc2)C1=O (centres undefined)	-0.1%	/	/	0.9%
CC1CCN(c2c([N+](=O)[O-])nn(-c3ccc4c(c3)OCCO4)[n+]2[O-])CC1	-0.7%	-4.5	-55.9%	0.4%
COC(=O)c1ccccc1S(=O)(=O)N1CCCC(c2nc3c(nnn3Cc3ccc(C)cc3)c(=O)[nH]2)C1 (centres undefined)	-3.9%	/	-10.8%	-13.3%
COC(=O)c1ncccc1SC	2.2%	15.2	-5.0%	-29.8%
CCc1cc2c(=O)c(-n3cnc4ccccc43)coc2cc1O	?	11.1	-29.3%	-16.1%
COc1cc(C(C)=O)ccc1Oc1ccc(S(=O)(=O)N2CCOCC2)cn1	0.3%	/	/	10.8%
O=C(NCc1n[nH]c(=S)n1-c1ccc(Cl)c(Cl)c1)c1ccc(S(=O)(=O)N2CCCCC2)cc1	1.1%	/	-9.1%	4.7%
CCCCCCN1Cc2ccccc2C1	-1.9%	4.8	-19.0%	11.8%
O=S(=O)(c1ccc(Cl)cc1)N1CCn2c1nc1ccccc12	?	-1.1	-10.4%	-15.6%
Cc1nc(N2CCN(S(=O)(=O)c3ccc(Br)cc3)CC2)c2c(C)c(C)sc2n1	0.4%	5.0	-3.2%	-5.9%
Cn1cccc1/C=N/NC(=O)CSc1nc2ccccc2n1C	-1.4%	5.1	-19.4%	-12.5%
CCCN(CCC)C(=O)Cn1c(=O)n(CCCC(=O)NCc2ccco2)c(=O)c2sccc21	2.6%	5.9[21.1 µM]	3.6%	0.4%
COc1ccc(NS(=O)(=O)c2cc(NC(=O)c3ccco3)ccc2N2CCCC2)cc1	1.3%	-2.9	6.8%	-4.9%
CCN(CC)S(=O)(=O)c1cccc(C(=O)OCC(=O)N2CC(=O)Nc3ccccc32)c1	0.8%	2.4	-3.3%	1.4%
CC(=O)Nc1ccc(S(=O)(=O)NCCC(=O)N2CCC(Cc3ccccc3)CC2)cc1	-3.2%	/	/	-25.4%
CC(=O)N1CCc2cc(S(=O)(=O)NC(CC(C)C)C(=O)N3CCCC3)ccc21 (centres undefined)	3.0%	/	0.2%	-5.0%
Cc1cccc2cc(C#N)c(NCCNC(=O)NC3CCCCC3)nc12	?	6.0	-7.1%	?
Nc1c(C(=O)Nn2cnnc2)cc([N+](=O)[O-])cc1[N+](=O)[O-]	/	-6.9	-3.3%	/
COc1ccccc1N(CC(O)CN1C(C)CCCC1C)S(=O)(=O)c1ccccc1 (centres undefined)	-0.5%	/	-0.4%	4.3%
CN(C)S(=O)(=O)N(CC(=O)N1CCOCC1)c1ccccc1	-0.2%	-4.2	-2.3%	-2.4%
COc1ccc(-n2nnnc2SCC(=O)Nc2nnc(C)s2)cc1	-1.2%	0.4	-2.1%	22.7%
CCN(CC)C(=O)CSc1nc2ccccc2c(=O)n1CCC(=O)N1CCN(c2ccccc2)CC1	4.5%	8.1	0.8%	-3.6%
Cc1ccc(S(=O)(=O)N2CCN(C(=O)C3CCCC3)CC2)cc1C	-2.5%	/	0.5%	12.1%
CC(=O)c1ccc(N/N=C(/C(N)=O)C2=NC(C)(C)Cc3ccccc32)cc1	1.6%	-10.1	?	9.3%
Cc1ccc(C(=O)COC(=O)CNS(=O)(=O)c2ccc(C)cc2)cc1	0.9%	/	-1.4%	-4.8%
COC(=O)[C@@H](CC(C)C)N(Cc1ccccc1)S(=O)(=O)N(Cc1ccccc1)[C@@H](CC(C)C)C(=O)OC	1.0%	/	/	-2.3%
COc1cccc(C(=O)NCCCNC(=O)c2ccccn2)c1	-3.2%	/	-0.2%	-7.3%
O=C(/C=C/c1cc(Br)ccc1O)c1ccco1	4.4%	-7.1	?	0.1%
COc1ccc(C2=Nn3c(nnc3-c3ccccc3Cl)SC2)cc1OC1CCCC1	-4.7%	/	/	?
COc1cccc(NC(=O)CSCc2n[nH]c(=O)[nH]2)c1	-5.6%	-4.8	-2.7%	8.3%
COc1cccc(C2=CC(c3ccc(OC)c(OC)c3OC)n3nnnc3N2)c1 (centres undefined)	?	?	15.1%	?
Cc1cccc(CN2CCC(CNC(=O)CCNC(=O)Cn3ccc4ccccc4c3=O)CC2)c1	0.0%	-5.5	-2.8%	2.7%
S=c1[nH]nc(COc2ccc(Cl)cc2)n1-c1ccccc1	1.4%	/	-0.2%	-18.3%
O=C(C1=C(O)C(=O)N(Cc2ccco2)C1c1cccc(O)c1)c1ccco1 (centres undefined)	-2.9%	/	-3.3%	-0.2%
Cc1ccc2nc(Cl)c(C3CC(c4cccs4)=NN3C(=O)CCCC(=O)O)cc2c1 (centres undefined)	-5.2%	-9.7	-9.6%	-8.3%
COc1cc(OC)cc(-c2cc3cc4c(cc3cn2)OCO4)c1	1.9%	/	/	0.1%
C=CCn1c(SCC(=O)c2ccc(OC)cc2)nnc1-c1cc2cccc(OC)c2o1	-4.1%	0.0	-2.8%	-17.9%
CCN(C(=O)c1cc(S(=O)(=O)N2CCOCC2)cn1C)c1cccc(C)c1	7.4%	/	-5.7%	12.8%
COc1ccc(NC(=O)Nc2cccc(Cl)c2Cl)c(OC)n1	1.3%	-12.4	-6.4%	-10.6%
CCOC(=O)C1CCN(Cc2cc(=O)oc3cc(C)ccc23)CC1	0.7%	/	-5.8%	1.7%
CC(C)Oc1ccc(S(=O)(=O)N2CCCCC2)cc1NC(=O)CN1CCCC1c1cccs1 (centres undefined)	-0.1%	/	/	-11.0%
Cc1c(C(=O)NCCSCc2ccco2)cccc1[N+](=O)[O-]	-0.8%	0.2	-7.7%	-0.9%
O=C(NCC1COc2ccccc2O1)c1cc(S(=O)(=O)N2CCOCC2)ccc1F (centres undefined)	-0.8%	/	/	-6.2%
COc1cc(C(=O)NCCN2CCOCC2)cc(OC)c1OC	2.4%	-18.1	1.2%	-4.7%
COc1ccc2c(n1)Sc1nc3ccccc3nc1N2	?	-1.9	-54.4%	?
CCCc1cc(=O)[nH]c(SCC(N)=O)n1	-1.7%	-21.2	-0.2%	13.9%
